# HepG2 viability – viability loss in HepG2 hepatoma cells – cell-based, ATP luminescence, cherry-pick, activator set 2, cytotoxicity control, dose response (AID 1053143); HepG2 viability, CellTiter-Glo ATP luminescence, 72 h; activity change, negative = cytotoxicity, % at the top dose, mostly 26 µM; hits show AC50 in µM; actives 3.7% (n = 3,400);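 active = fitted AC50 at most twice the highest valid dose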;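 note: 0 = neutral control and -100 = positive control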
# An asterisk follows results filed as active; [ ] = remark or other dose. A portion of the library; the hit share may differ from the screen's.
SMILES,HepG2 viability
COc1ccc(-c2cc3cc(F)ccc3cn2)cc1,-12%
O=C(Nc1ccc(Cl)c(Cl)c1)Nc1ccccn1,-14%
CCc1ccc(CNCCNC(=O)c2ccco2)cc1,-20%
C=CCc1c(C)nc2c(-c3ccccc3)cnn2c1N1CCOCC1,-4%
Nc1ccccc1C#Cc1ccccc1,-3%
CC1CCN(C(=O)COC(=O)c2cc(Cl)c3c(c2)OCO3)CC1,-15%
COc1ccc(C2C(C#N)=C(N)N(c3ncn[nH]3)C3=C2C(=O)CCC3)cc1 (configuration not stated),-2%
Fc1ccc(-c2cnc(-c3cccs3)o2)cc1,2%
CN1CCN(C(=O)c2cc(COc3ccccc3)on2)[C@@H](c2ccccc2)C1,-10%
Cc1cnc(C(=O)Nc2ccc(C(C)C)cc2)cn1,-23%
CCN1C(=O)CCN(C2CCCC2)c2nc(Nc3ccc(C(=O)NC4CCN(C)CC4)cc3OC)ncc21,13µM*
Cn1c(=O)c(C(=O)NCC2CCCO2)c(O)c2ccccc21 (configuration not stated),-5%
Fc1ccc(-c2nc3ccccc3[nH]2)cc1,-27%
O=C(Oc1ccccc1/C=C\C(=O)c1cc2ccccc2o1)c1ccccc1,-14%
Oc1c(/C=N/c2ccccn2)sc2ccccc12,-10%
Cc1ccnc(NC(=O)Nc2cccc(F)c2)n1,-15%
Cc1ccc(O)c(-c2cc(-c3ccc(F)cc3)no2)c1,-20%
COC(=O)CSc1nc2ccccc2c(=O)n1C,12%
COc1cccc(C(=O)NC2=NCCS2)c1,4%
Cc1ccc(-c2cc3nc(NCCc4ccncc4)n(C)c(=O)c3s2)cc1,-2%
COc1ccc2c(c1)CCC1C2=NN(/C(C)=C\C(C)=O)C1c1ccc(F)cc1 (configuration not stated),-2%
OCCNCc1ccc(OCc2ccc(Cl)cc2Cl)cc1,-35%
Cc1cc(OCc2cc(C(=O)N(C)C3CCOC3)no2)cc(C)c1Cl (configuration not stated),-10%
COc1ccccc1N1CCN(/N=C/c2cccc(OC)c2O)CC1,4%
Cc1nc(NC(=O)C2CCCCC2)sc1C,-11%

# Molecules from the list above containing sulfur, in the order listed:
SMILES,HepG2 viability
Fc1ccc(-c2cnc(-c3cccs3)o2)cc1,2%
Oc1c(/C=N/c2ccccn2)sc2ccccc12,-10%
COC(=O)CSc1nc2ccccc2c(=O)n1C,12%
COc1cccc(C(=O)NC2=NCCS2)c1,4%
Cc1ccc(-c2cc3nc(NCCc4ccncc4)n(C)c(=O)c3s2)cc1,-2%
Cc1nc(NC(=O)C2CCCCC2)sc1C,-11%

# New compounds follow
SMILES,HepG2 viability
CC(=O)Nc1nc(-c2ccc3c(c2)OCO3)cs1,-14%
O=c1nc2c(-c3ccccc3F)n[nH]n2c2ccccc12,6%
Cc1ccc2nc(/C=C/c3cccc(F)c3)ccc2c1,-21%
COc1ccccc1-c1nc(COc2ccc(Cl)cc2Cl)no1,-8%
O=C(c1cccs1)N(C(=O)c1cccs1)c1ccc(Br)cn1,-5%
O=C(c1cc(-c2ccccc2O)on1)N1CCOCC1,-14%
Cn1cc(-c2nnc(-c3ccccc3)o2)c2ccccc21,1%
Nc1cc(-c2ccc(Cl)cc2)nn1-c1ccccc1,-13%
COc1cccc(-c2nc3cc(C)ccc3o2)c1,26µM*
COc1ccc(NC(=O)Cc2ccccc2)cc1,-8%
c1cnc(SCCCOc2ccc3ccccc3c2)nc1,-7%
O=C(/C=C/c1ccc(O)c(O)c1)c1ccccc1O,-11%
O=C(c1cc(=O)[nH]c2ccccc12)N1CCN(c2ccc([N+](=O)[O-])cc2)CC1,-13%[12 µM]
Cc1cccc(-n2ncc3c(N4CCC(C)CC4)ncnc32)c1,1%
O=S(=O)(c1cccs1)N1CCCc2cccc(O)c21,-6%[6 µM]
O=C(COc1ccc2oc3c(c2c1)CCCC3)Nc1ccccn1,12%
C/C(=N\NC(=O)c1ccccc1)c1ccccc1F,-9%
Cc1nn(CCOc2ccccc2)c(=O)n1-c1c(F)cccc1F,-8%
Cc1ccc(-c2nc(-c3ccncc3)no2)cc1C,-19%
CCOC(=O)c1cnc2c(c(C)nn2C)c1Oc1ccc(OC)cc1,-5%
CC(O)CNCc1ccccc1C(F)(F)F (configuration not stated),1%
O=C(N/N=C/c1cn(-c2ccccc2)nc1-c1cc2ccccc2o1)c1cccnc1,-5%
O=C(Nc1ccc(F)cc1F)c1cc2ccccc2oc1=O,-4%
c1ccc(-c2ccc3c(n2)CCCN3Cc2ccccn2)cc1,4%[12 µM]
CCC(=O)N(Cc1ccco1)Cc1cc2cccc(C)c2n2nnnc12,0%

# Sorted by heavy-atom count (ascending): some entries from above
SMILES,HepG2 viability
CC(=O)Nc1nc(-c2ccc3c(c2)OCO3)cs1,-14%
C/C(=N\NC(=O)c1ccccc1)c1ccccc1F,-9%
O=C(c1cc(-c2ccccc2O)on1)N1CCOCC1,-14%
Cn1cc(-c2nnc(-c3ccccc3)o2)c2ccccc21,1%
O=C(Nc1ccc(F)cc1F)c1cc2ccccc2oc1=O,-4%
COc1ccccc1-c1nc(COc2ccc(Cl)cc2Cl)no1,-8%
Cc1nn(CCOc2ccccc2)c(=O)n1-c1c(F)cccc1F,-8%
CCC(=O)N(Cc1ccco1)Cc1cc2cccc(C)c2n2nnnc12,0%
O=C(c1cc(=O)[nH]c2ccccc12)N1CCN(c2ccc([N+](=O)[O-])cc2)CC1,-13%[12 µM]
O=C(N/N=C/c1cn(-c2ccccc2)nc1-c1cc2ccccc2o1)c1cccnc1,-5%

# Back to the main list with the 2 entries that preceded the break.
SMILES,HepG2 viability
c1ccc(-c2ccc3c(n2)CCCN3Cc2ccccn2)cc1,4%[12 µM]
CCC(=O)N(Cc1ccco1)Cc1cc2cccc(C)c2n2nnnc12,0%
COc1ccc(NC(=O)n2ncc3c(C)cccc32)cc1,-12%
COc1ccc(-c2nc(-c3cccnc3)no2)cc1,-21%
O=C(NCCc1ccc(F)cc1)NC12CC3CC(CC(C3)C1)C2,-16%
COc1ccc(N2C(=S)NC3N2C(=S)NC3(C)c2ccccc2)cc1 (configuration not stated),-26%
Cc1occc1-c1nnc(SC(C)C(=O)Nc2ccccc2F)o1 (configuration not stated),19µM*
COc1cc(/C=C/C(=O)N2CCC=CC2=O)cc(OC)c1OC,17µM*
Cc1ccccc1-c1nnc(-c2ccccc2C)o1,1%
CCn1c(-c2ccccc2)csc1=Nc1ccc(O)cc1,-1%
Nc1nc(-c2cc3ccccc3o2)cs1,9%
O=C1/C(=C\c2ccsc2)N2CCC1CC2,-12%
Cc1ccc(N2CC(C(=O)Nc3ccc4c(c3)OCCO4)CC2=O)cc1 (configuration not stated),-13%
COc1ccc(-c2cc3ncccc3cn2)cc1,7%[12 µM]
Cc1nn(C)c(C)c1/C=C/C(=O)c1cccs1,1%
CC1CCC(NC(=O)c2cc3ccccc3cc2O)CC1 (configuration not stated),-17%
CC(=O)Nc1ccc(-c2nc3c(C)cccc3[nH]2)cc1,2%
COc1ccc2oc(C(=O)Nc3nnc(C)s3)c(C)c2c1,-6%
Clc1ccc(-n2nnc(-c3cccnc3)n2)cc1Cl,21%
Cc1nc(C)c(-c2csc(Nc3ccc(F)cc3)n2)s1,-21%
O=C(O)c1cccc(-c2ccc(/C=N/NC(=O)C3COc4ccccc4O3)o2)c1 (configuration not stated),-8%
CN(c1ccccc1)c1nc2ccsc2c(=O)s1,-2%
O=C(Nc1ccc2c(c1)CCC2)c1cccc(OC(F)F)c1,-12%
Clc1ccc(-c2nnc(-c3ccccc3)o2)c(Cl)c1,-9%
C(#Cc1ccc2c(c1)COc1c3ccccc3nn1-2)c1ccccc1,-7%
CCOC(=O)C1=C(CC)Nc2ccccc2N=C1N,7%
Cc1cccc(-c2nnc(SCc3ccccc3)o2)c1,0%

# Part of the list above in another layout:
CCOC(=O)C1=C(CC)Nc2ccccc2N=C1N
  HepG2 viability: 7%

Cc1nc(C)c(-c2csc(Nc3ccc(F)cc3)n2)s1
  HepG2 viability: -21%

Clc1ccc(-c2nnc(-c3ccccc3)o2)c(Cl)c1
  HepG2 viability: -9%

CC1CCC(NC(=O)c2cc3ccccc3cc2O)CC1 (configuration not stated)
  HepG2 viability: -17%

# (cont.)
SMILES,HepG2 viability
Cc1ccc(C(=O)Nc2ccc(N3CCCCC3)cc2)cc1,-6%
O=C(NC1=NCCS1)c1ccc(OCC2CCCO2)cc1 (configuration not stated),-9%
Cc1ccc(SCC(=O)Nc2ccc(N3CCN(C)CC3)c(F)c2)cc1,-5%
Cc1ccc(NC(=O)c2sccc2C)nc1,-18%
CCOc1ccc(CCNC(=O)/C=C/c2ccco2)cc1OCC,-13%
COc1cc(C2C3=C(CC(C)(C)CC3=O)Nc3c2c(=O)[nH]c(=O)n3Cc2ccccc2)ccc1O (configuration not stated),37%
O=C1/C(=C/Nc2cccc([N+](=O)[O-])c2)CCc2ccccc21,-6%

# Screens as filed in PubChem.
